Screening results (PubChem)
ugtP null kill: compounds lethal to S. aureus RN4220 ugtP deletion mutant. OD600 growth, 16 h; some inactives read as strong as hits. growth inhibition, % (no concentration beside the values). 0.54% of 330,000 active. AID 1259309;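 active means z-score under -3 and OD600 up to 0.15 on both plates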;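 further: plate controls were untreated wells for no effect and antibiotic for full effect; wells of about 80 µL received 100 nL stock; the first replicate is given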
Mtb hypoxia rep: inhibitors of hypoxia-regulated fluorescent reporter in Mycobacterium tuberculosis; M. tuberculosis hypoxia-regulated fluorescent reporter, fluorescence; fluorescence inhibition, % (test concentration not listed); 0.1% of 300,000 active;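 active means 35 to 45% if threefold the growth effect, above 45% if 1.5-fold the growth effect; inactive means the rest, general growth blockers included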;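 further: wells of about 50 µL received 100 nL stock; 0% = vehicle wells and 100% = reference inhibitor wells; whole bacteria with a GFP reporter of the hypoxia response; strong numbers were not always called active; many hits fall short of the cut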
BJeLR lethal: BJeLR cell viability loss | BJeLR (HRASV12) viability, CellTiter-Glo ATP luminescence, 48 h; reference of the scale not given here | 0.17% of 300,000 active | inhibition, % (concentration not given with the values) | AID 1554;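 active means replicate mean above 50%; inconclusive means above 50% but judged a plate artefact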;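 further: 50 nL library stock added to about 25 µL; numbers are from one replicate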
Sa RN4220 lethal: kills Staphylococcus aureus RN4220 | S. aureus RN4220 growth, OD600, 16 h | inhibition, % (test concentration not listed) | 0.33% of 330,000 active | AID 1259311;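 active means z-score of -3 or lower and OD600 up to 0.18 on both plates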;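 further: plate controls were untreated cells for no effect and reference antibiotic for full effect; stock transfer was 100 nL into about 80 µL; one replicate is shown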
Bead autofluor: flagged as autofluorescent in microsphere protease counterscreen; fluorescence intensity (no concentration beside the values); compound autofluorescence counterscreen, microsphere flow cytometry; hits give high values; 3.1% of 360,000 active; AID 624483;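 active means at least 3 SD above the mean of all compounds, about 16000 in these data; inconclusive means too few beads counted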;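 further: 100 nL of 1 mM stock went into each well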
PrP 5UTR inh: inhibition of PrP 5' UTR reporter expression; cell-based PrP 5' UTR mRNA reporter, plate reader; inhibition, % (no concentration beside the values); 0.35% of 340,000 active; AID 488862;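 active means every replicate at 50% or more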;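 further: 0 = median of the neutral control wells; tested in H4 reporter cells; numbers are from one replicate; inactives centre near -14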
Mtb hypoxia rep growth: recorded beside Mtb hypoxia rep, whose call it bears; growth inhibition, %; measured here: M. tuberculosis growth (absorbance);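 0% = vehicle and 100% = reference antibiotic; read after six days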
* hit, by the source's call; ? = inconclusive; / = no result given.

SMILES | ugtP null kill | Mtb hypoxia rep | Mtb hypoxia rep growth | BJeLR lethal | Sa RN4220 lethal | Bead autofluor | PrP 5UTR inh
CN(C)CCNC(=O)c1cccn(Cc2cccc(C(F)(F)F)c2)c1=O | 5 | 5 | -2 | -3 | 4.5 | 4183 | -30
N#Cc1cc(Oc2cccc3cccnc23)c(-n2nnc3ccccc32)cc1C#N | -2 | -3 | 13 | 1 | 0.0 | 8522 | -1
Cc1nc(=O)c(-c2ccccc2)c(C)n1-c1ccc(S(N)(=O)=O)cc1 | -5 | -3 | 0 | 8 | -0.1 | 2396 | -7
CCCN1C(=O)C(O)(C2COC(C)(C)CC2=O)c2ccccc21 (stereo not drawn) | 0 | 2 | 10 | -4 | 4.3 | 4367 | -12
S=C(Nc1cccc2ccccc12)N1CCN(c2ncccn2)CC1 | 5 | -7 | 0 | -4 | 3.5 | 3148 | -17
COc1ccc(NC(=O)/C(=C\c2ccc(OC)c(OC)c2)NC(=O)c2ccco2)cc1 | 5 | 13 | 0 | -2 | 3.0 | 7205 | -26
CCCCNC(=O)CCNC(=O)c1ccc(C(C)(C)C)cc1 | 5 | -2 | -2 | 1 | -3.2 | 20315* | -14
COc1ccc(-c2csc(NC(=O)CS(=O)(=O)c3ccccc3)n2)cc1 | 15 | 9 | 0 | -4 | 3.7 | 5656 | -9
CCC(=O)c1ccc(OCc2ccc(C#N)cc2)cc1 | 4 | 3 | 4 | 0 | 9.6 | 4344 | -39
Cc1cc(C(F)(F)F)nn1CC(=O)Nc1ccc(Br)c2cccnc12 | -5 | 11 | 13 | 4 | 6.2 | 4328 | 1
Cc1ccc(NC(=O)N2CCN(C(=O)C3CCCO3)CC2)cc1 (stereo not drawn) | 3 | 3 | 1 | -20 | 1.4 | 4476 | 2
CCOC(=O)c1[nH]c(C)c(C(=O)OCC(=O)NC2CCS(=O)(=O)C2)c1C (stereo not drawn) | 5 | 0 | 4 | -14 | 2.2 | 4727 | -13
Cc1ccc(SC(CCN2CCC(C)CCC2=O)c2ccccc2)cc1 (stereo not drawn) | 10 | 19 | 9 | / | -2.7 | / | /
Cc1ccc(-n2c(C)nc3c(cnn3-c3ccccc3Cl)c2=O)cc1C | 0 | 16 | 7 | 1 | 2.9 | 4533 | -25
COc1ccc(C(=O)N(Cc2nc(-c3ccc(C)cc3)no2)C2CCCCC2)cc1OC | 0 | 2 | -2 | -3 | -0.4 | 5443 | -12
O=C(c1ccc(S(=O)(=O)N2CCC(c3nc4ccccc4[nH]3)CC2)cc1)N1CCOCC1 | 7 | -2 | -1 | 3 | 1.9 | 7592 | -17
Nc1nc(SCc2c(Cl)cccc2Cl)n[nH]1 | 8 | 4 | 3 | -11 | -0.9 | 4617 | 1
C/C(=N\NC(=O)c1c(Cl)cnn1C)c1ccc(NC(=O)c2ccncc2)cc1 | / | / | / | 0 | / | 6890 | -4
CCOc1ccc(-c2cc(CCCC(=O)N3CCN(c4ccc(OC)cc4)CC3)no2)cc1 | 4 | -4 | 12 | -1 | 8.0 | 4369 | 7
CC1=C(C(=O)OC(C)C)C(c2ccc3c(c2)OCO3)NC(=O)N1 (stereo not drawn) | -1 | 3 | 8 | -1 | 2.9 | 4375 | -11
COc1ccccc1N1CCN(C(=O)C(=O)c2cn(CC(=O)N3CCCC3)c3ccccc23)CC1 | 13 | 6 | 4 | 5 | 1.1 | 4771 | -23
CC(=NOCc1ccccc1C#N)c1cc2ccccc2o1 | 5 | 4 | 0 | / | 5.1 | / | /
O=C(CN1C(=O)S/C(=C\c2cccs2)C1=O)Nc1ccc(O)cc1C(=O)O | -6 | -4 | -4 | 0 | -6.2 | 4651 | -2
CCN(CC(=O)Nc1c(F)cccc1F)C(=O)c1cc([N+](=O)[O-])ccc1N1CCCCC1 | -2 | 3 | 10 | 7 | 7.8 | 6059 | 12
CC1CCCCN1CC(O)c1c[nH]c2ccccc12 (stereo not drawn) | 15 | 16 | 8 | 7 | 0.3 | 3644 | -3
Following part.
SMILES | ugtP null kill | Mtb hypoxia rep | Mtb hypoxia rep growth | BJeLR lethal | Sa RN4220 lethal | Bead autofluor | PrP 5UTR inh
CC(=O)c1ccc(-c2ccccc2OC(F)(F)F)o1 | 5 | 6 | -3 | -7 | 7.8 | 3562 | -5
O=C(CC(SCc1ccco1)c1ccc(O)cc1)c1cccs1 (stereo not drawn) | 5 | / | / | -7 | 4.8 | 2848 | -51
CCCc1nn(C)c(C(=O)Nc2cccc(C)c2)c1Cl | 4 | 4 | 12 | -6 | 5.5 | 2028 | -26
CC(=O)N1C(C)C=C[C@]1(Cc1ccccc1)C(=O)NCCN1CCOCC1 (stereo partly drawn) | 4 | 4 | 4 | / | 3.6 | / | /
Cc1ccc(N2C(=O)CC(Sc3ccccc3C(=O)O)C2=O)cc1 (stereo not drawn) | 16 | 5 | 2 | 2 | 7.0 | 2089 | -10
CCOc1ccc(/C=N/NC(=O)C(C)N(c2ccc(OC)cc2)S(C)(=O)=O)cc1OCC (stereo not drawn) | / | / | / | 5 | / | 2300 | -7
CCc1sc(C(=O)NCCc2ccc(S(N)(=O)=O)cc2)cc1C | -2 | -1 | -9 | -9 | -0.2 | 2900 | -3
O=C(Nc1cc(S(=O)(=O)N2CCOCC2)ccc1N1CCCC1)c1cc(F)c(F)cc1Cl | 0 | -5 | 12 | / | 3.1 | 6402 | 5
COCCCNC(=O)C1CCCN(S(=O)(=O)c2ccc(C)cc2)C1 (stereo not drawn) | -1 | 3 | 14 | 3 | 3.8 | 5199 | -9
O=C(Nc1ccc(F)cc1F)c1ccc2c(c1)[nH]c(=O)n2Cc1ccc(F)cc1 | 17 | 10 | 6 | 2 | -3.3 | 3519 | -45
CCN(CC)C1CCS(=O)(=O)C1 (stereo not drawn) | 3 | 17 | 6 | 0 | 4.8 | 3493 | -16
Cc1ccc(CNC(=O)CCc2ccccc2)cc1 | 14 | 25 | 29 | 5 | 1.0 | 2349 | -13
CC(C(=O)Nc1ccon1)N1C(=O)c2ccccc2S1(=O)=O (stereo not drawn) | 3 | 5 | -1 | 5 | 2.0 | ? | -61
CCOC(=O)C1(CCCc2ccccc2)CCN(Cc2ccn[nH]2)CC1 | 10 | 5 | 8 | 5 | 1.8 | 2408 | -16
O=C(NCCCCC(NC(=O)C1CCCCC1)C(=O)O)c1ccccc1 (stereo not drawn) | 15 | 7 | 1 | 1 | 7.3 | 10054 | -30
NN(CCO)C(=S)Nc1ccc(Cl)cc1 | 1 | -2 | 2 | -6 | 4.5 | 3398 | -24
Cc1cc(C)n(-c2ccc(Cl)c(C(=O)Nc3ccc(-c4nnc5n4CCCCC5)cc3)n2)n1 | -1 | -84 | -35 | 7 | 1.9 | 9011 | -5
CCn1c(SCC(=O)N2CCCC2)nnc1-c1ccc(S(=O)(=O)N2CCCCCC2)cc1 | -5 | -1 | 6 | 1 | 4.1 | 19519* | -67
CCCCN(CC)C(=O)Cn1ncc2c1-c1cc(C)ccc1OC2 | -1 | -1 | 6 | 3 | 3.1 | 6386 | -25
O=C(Nc1ccsc1C(=O)N1CCCC1)c1ccccc1 | 4 | 5 | 7 | 0 | 0.9 | 4643 | 11
Cc1ccsc1/C=N/Nc1ccc(C(=O)O)cc1 | / | / | / | -7 | / | 3783 | 11
Cc1cc(=O)n2[nH]c(-c3ccc(F)cc3)nc2n1 | 5 | / | / | 4 | 0.1 | 4254 | -13
COc1cc(C(=O)OC(C)C(=O)Nc2ccc3c(c2)OCCO3)cc(OC)c1OC (stereo not drawn) | 4 | 5 | 5 | / | 9.1 | 6109 | -17
O=C(CN1C(=O)NC(c2ccccc2)(c2ccccc2)C1=O)Nc1ccc(N2CCOCC2)cc1 | -8 | 16 | 6 | / | 7.0 | 3359 | -14
COc1ccc(NC(=O)NNC(=O)C(C)Oc2ccc3ccccc3c2)cc1 (stereo not drawn) | 2 | 11 | 11 | 11 | 3.1 | 4896 | -9

Twelve successive entries already listed, quoted:
SMILES | ugtP null kill | Mtb hypoxia rep | Mtb hypoxia rep growth | BJeLR lethal | Sa RN4220 lethal | Bead autofluor | PrP 5UTR inh
CCOC(=O)C1(CCCc2ccccc2)CCN(Cc2ccn[nH]2)CC1 | 10 | 5 | 8 | 5 | 1.8 | 2408 | -16
O=C(NCCCCC(NC(=O)C1CCCCC1)C(=O)O)c1ccccc1 (stereo not drawn) | 15 | 7 | 1 | 1 | 7.3 | 10054 | -30
NN(CCO)C(=S)Nc1ccc(Cl)cc1 | 1 | -2 | 2 | -6 | 4.5 | 3398 | -24
Cc1cc(C)n(-c2ccc(Cl)c(C(=O)Nc3ccc(-c4nnc5n4CCCCC5)cc3)n2)n1 | -1 | -84 | -35 | 7 | 1.9 | 9011 | -5
CCn1c(SCC(=O)N2CCCC2)nnc1-c1ccc(S(=O)(=O)N2CCCCCC2)cc1 | -5 | -1 | 6 | 1 | 4.1 | 19519* | -67
CCCCN(CC)C(=O)Cn1ncc2c1-c1cc(C)ccc1OC2 | -1 | -1 | 6 | 3 | 3.1 | 6386 | -25
O=C(Nc1ccsc1C(=O)N1CCCC1)c1ccccc1 | 4 | 5 | 7 | 0 | 0.9 | 4643 | 11
Cc1ccsc1/C=N/Nc1ccc(C(=O)O)cc1 | / | / | / | -7 | / | 3783 | 11
Cc1cc(=O)n2[nH]c(-c3ccc(F)cc3)nc2n1 | 5 | / | / | 4 | 0.1 | 4254 | -13
COc1cc(C(=O)OC(C)C(=O)Nc2ccc3c(c2)OCCO3)cc(OC)c1OC (stereo not drawn) | 4 | 5 | 5 | / | 9.1 | 6109 | -17
O=C(CN1C(=O)NC(c2ccccc2)(c2ccccc2)C1=O)Nc1ccc(N2CCOCC2)cc1 | -8 | 16 | 6 | / | 7.0 | 3359 | -14
COc1ccc(NC(=O)NNC(=O)C(C)Oc2ccc3ccccc3c2)cc1 (stereo not drawn) | 2 | 11 | 11 | 11 | 3.1 | 4896 | -9

The list goes on:
SMILES | ugtP null kill | Mtb hypoxia rep | Mtb hypoxia rep growth | BJeLR lethal | Sa RN4220 lethal | Bead autofluor | PrP 5UTR inh
CCOC(=O)N1CCC(N2Cc3cccc(C(=O)Nc4c(C)cccc4CC)c3C2=O)CC1 | -8 | 9 | 8 | 7 | 0.7 | 4793 | -5
Cc1cccc2c1-c1sc(C(=O)N3CCCCC3)cc1CO2 | -5 | / | / | -13 | 9.6 | 6771 | -52
COc1c(C)cc(C(=O)C2CCCN(C(=O)c3cc(C4CC4)[nH]n3)C2)cc1C (stereo not drawn) | 3 | 2 | -4 | 1 | 0.7 | 5721 | -13
O=C(Nc1ccc(F)c(F)c1)C1=COCCO1 | -2 | -3 | -1 | -12 | -0.7 | 4154 | -21
CC(=O)C1=C(C)NC(SCSc2ccccc2)=C(C#N)C1c1cccnc1 (stereo not drawn) | -8 | -1 | -8 | 2 | -0.4 | / | /
CC(=O)c1[nH]c(C)c(C(=O)N2CCCC(Nc3cccc(F)c3)C2)c1C (stereo not drawn) | 1 | 0 | 13 | 0 | 1.0 | 5757 | -2
CN(C(=O)COC(=O)c1ccc2c(c1)OCO2)C1CCS(=O)(=O)C1 (stereo not drawn) | 4 | -1 | 2 | 2 | 4.6 | 2461 | 7
Cn1c(-c2cccc(Br)c2)cnc1NCc1ccccc1O | -2 | 2 | -3 | 4 | 0.9 | 3367 | -22
COc1ccc(CN2CCN(Cc3ccc(C)cc3)CC2)c(OC)c1 | 9 | 5 | 5 | -1 | 1.1 | 3670 | -18
CC(C)(C)NC(=O)N1CCCC(C(=O)c2cccc(Cl)c2)C1 (stereo not drawn) | 9 | 15 | 0 | -25 | 3.8 | 2598 | -19
O=c1c2ccccc2n2c(-c3ccc(C(F)(F)F)cc3)nnc2n1Cc1ccccc1 | -1 | 20 | 18 | 0 | -0.5 | 2089 | -8
Cc1ccc(CN2CCN(C3CSCCSC3)CC2CCO)cc1 (stereo not drawn) | 2 | 2 | 3 | -1 | 7.3 | 4297 | -13
Cc1onc(-c2ccccc2)c1C(=O)NCC1CCN(C(=O)c2c(-c3ccccc3)noc2C)CC1 | 11 | / | / | -6 | 3.3 | 3430 | -18
O=C(C1CCC(CNc2c(N3CCCC3)c(=O)c2=O)CC1)N1CCc2ccccc21 (stereo not drawn) | 4 | 4 | 20 | -4 | 1.3 | 6292 | -5
Cn1c(=O)cc(SCC(=O)NCCCN2CCOCC2)c2ccccc21 | 5 | 3 | 1 | -3 | 1.0 | 3090 | -27

Hits appear at their usual frequency (roughly 4% active in at least one column).
